# NS1 function inh – influenza NS1 inhibition; S. cerevisiae slowed by influenza A NS1, growth recovery by OD600; Potency, µM (highest dose often 46.1 µM), inactives show at the highest dose activity, positive = more growth; hit rate 0.4% among 270,000; AID 2326; note: actives are rising curves; nearly all actives have a fitted effect of over 50% in size
#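 In this qHTS, NS1 from influenza A is expressed in budding yeast, where it slows growth. Cells are switched from glucose to 2% galactose medium (pH 6.0, -URA), treated with compound, and growth recovery is read at OD600.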
# LASV entry inh – Lassa virus entry inhibition; Lassa virus pseudotype entry inhibition, cell reporter; control for the full effect not named in the record; Potency, µM (top dose mostly 37.9 µM), without a hit: at the top dose activity change, negative = inhibition, actives largely listed as inhibitors; hit rate 1.2% among 300,000; AID 540256; active means well fitted inhibition curve with a large enough effect; inconclusive means small, poorly fitted or top-dose-only effect, or effect the other way; inactive means flat fitted curve, though single readings scatter; tested in HEK293 cells; note: % is set by controls: 0 for no effect and ±100 for the full control effect; nearly all actives have a fitted effect of over 50% in size; luciferase read-out
# Marburg entry inh – blocks Marburg virus binding to or entry into cells; Marburg virus pseudotyped entry inhibition, cell reporter; control for the full effect not named in the record; about a third of the inactives were read at about 46 µM; Potency, µM (top dose mostly 37.8 µM), for inactives: top-dose activity change, negative = inhibition, actives largely listed as inhibitors; hit rate 1.8% among 300,000; active = well fitted inhibition curve with a large enough effect; inconclusive = small, poorly fitted or top-dose-only effect, or effect the other way; inactive = flat fitted curve, though single readings scatter; tested in HEK293 cells; about a fifth of its hits are not listed in these tables; note: % is set by controls: 0 for no effect and ±100 for the full control effect; luciferase read-out
# Cruzain noTriton – inhibitors of Trypanosoma cruzi cruzain without detergent; purified cruzain, Z-FR-AMC fluorescence, no detergent; Potency, µM, for the others: max response, negative = inhibition, most hits filed as inhibitors; hit rate 2.3% among 200,000; AID 1476; active = well fitted curve in the direction sought with a large enough effect; inconclusive = small, poorly fitted or top-dose-only effect, or another doubt; inactive = no such curve, though single readings can be large; an effect the other way counts as inactive or inconclusive;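 note: plate controls were enzyme without inhibitor for no effect and buffer without enzyme for full effect; nearly all actives have a fitted effect of over 40% in size; top concentration of the series not given in the record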
# Target sequence (P25779 123-467 limits assumed): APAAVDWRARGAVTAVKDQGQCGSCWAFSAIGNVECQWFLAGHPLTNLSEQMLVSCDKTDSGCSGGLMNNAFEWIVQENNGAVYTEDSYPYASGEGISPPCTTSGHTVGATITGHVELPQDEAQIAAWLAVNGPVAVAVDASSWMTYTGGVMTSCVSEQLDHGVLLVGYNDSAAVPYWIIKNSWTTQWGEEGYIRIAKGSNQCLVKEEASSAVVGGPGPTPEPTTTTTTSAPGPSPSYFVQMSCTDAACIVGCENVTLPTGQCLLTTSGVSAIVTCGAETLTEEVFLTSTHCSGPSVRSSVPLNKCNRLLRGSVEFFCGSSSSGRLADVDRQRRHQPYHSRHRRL
#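 Purified cruzain at 1.5 nM, pre-incubated 15 min with compound at room temperature in 100 mM sodium acetate pH 5.5, 5 mM DTT, 0.00005% Triton X-100. Reaction started with 2 uM Z-FR-AMC; AMC fluorescence increase over 60 s gives rate.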
# SARS PLP yeast – inhibitors of SARS-CoV papain-like protease in yeast | Potency, µM (series often up to 32.9 µM), inactives show at the highest dose activity, positive = growth rescue | hit rate 0.19% among 330,000 | S. cerevisiae expressing SARS-CoV PLpro, growth rescue; control for the full effect not named in the record; note: 0% is about no effect; nearly all actives have a fitted effect of over 55% in size; growth read by luminescence after 48 h
# 2A StopGo – lowers the luciferase signal of an FMDV 2A StopGo reporter; human cells with a luciferase reporter of 2A StopGo recoding; control for the full effect not named in the record; AID 1159524; hit rate 1.2% among 410,000; Potency, µM (top dose mostly 57.9 µM), for the others: at the top dose signal change, negative = less light; active = well fitted falling curve with a large enough effect; inconclusive = small, poorly fitted or top-dose-only effect; inactive = no such curve, though single readings can be large or run the other way; tested in HEK293T cells; note: % is set by controls: 0 for no effect and ±100 for the full control effect; nearly all actives have a fitted effect of over 45% in size; luciferase light after 4 h
# RE007 growth inh – less growth of the S. pombe RE007 Vpr strain. hit rate 0.21% among 360,000. S. pombe RE007 Vpr strain, BacTiter-Glo ATP luminescence, 24 h; control for the full effect not named in the record. Potency, µM (top dose mostly 92.2 µM), without a hit: at the highest dose activity change, negative = less growth. AID 651644; active = well fitted falling curve with a large enough effect; inconclusive = small, poorly fitted or top-dose-only effect; inactive = no such curve, though single readings can be large or run the other way;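 note: % is set by controls: 0 for no effect and ±100 for the full control effect; nearly all actives have a fitted effect of over 50% in size; the assay follows cell death caused by Vpr and the record does not say whether a fall means rescue or toxicity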
#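 Fission yeast RE007 carrying one integrated HIV-1 vpr copy, seeded at OD 0.01 in PMG+AL medium with 23 nL pinned compound. Grown 24 h at 30 degrees; viability read by BacTiter-Glo luminescence after 5 min.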
# Cruzain Triton – blocks cruzain activity in presence of Triton detergent; purified cruzain, Z-FR-AMC fluorescence, 0.01% Triton; hit rate 0.43% among 200,000; Potency, µM, without a hit: max response, negative = inhibition, usual class: inhibitors; active = well fitted curve in the direction sought with a large enough effect; inconclusive = small, poorly fitted or top-dose-only effect, or another doubt; inactive = no such curve, though single readings can be large; an effect the other way counts as inactive or inconclusive;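 note: plate controls were neutral wells for no effect and buffer without enzyme for full effect; nearly all actives have a fitted effect of over 40% in size; top concentration of the series not given in the record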
#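 Sodium acetate buffer (100 mM, pH 5.5) containing 5 mM DTT and 0.01% Triton X-100 hosted 1.5 nM cruzain and test compound for 15 min at room temperature. Cleavage of 2 uM Z-FR-AMC was then tracked by fluorescence.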
# * marks the source's active call; other numbers are inactive results; u = inconclusive; x = no result given; & = joins results of further samples; [ ] = dose if it differs, or a comment. Unless noted, calls come from the whole dose curve; as a rule, active means well fitted rising curve with a large enough effect; inconclusive means small, poorly fitted or top-dose-only effect; inactive means no such curve, though single readings can be large or run the other way. Potency is the fitted concentration of half-maximal effect.
SMILES	Marburg entry inh	Cruzain Triton	Cruzain noTriton	NS1 function inh	2A StopGo	SARS PLP yeast	LASV entry inh	RE007 growth inh
COc1ccc(N(C(=O)c2cccnc2)S(=O)(=O)c2cccc([N+](=O)[O-])c2)cc1	-22%[46.1 µM]	x	x	4%	-7%	1%	u	15%
COc1ccc(OC)c(C(=O)NC2CC(C)(C)Cc3c2cnn3-c2ccccc2)c1 (stereo not given)	x	x	x	-15%	u	-50%	x	17%
CCN(C(=O)COC(=O)C(Cc1ccccc1)N1C(=O)c2ccccc2C1=O)C1CCS(=O)(=O)C1 (stereo not given)	6%&6%	-0.4%	u	-21%	-28%	9%	-4%	9%
COc1ccc(C(=O)c2c(N)sc3c2CCN(C)C3)cc1	x	x	x	0%	-13%	4%	x	-12%
O=C(Nc1cccc(C(F)(F)F)c1)c1sc(Cl)nc1C(F)(F)F	x	x	x	-89%	u	-8%	x	u
O=C(CS(=O)(=O)c1ccc(Cl)cc1)NCc1ccccc1	x	x	x	-6%	4%	8%	x	7%
C/C(=N/NS(=O)(=O)c1ccccc1)c1ccc(NC(=O)C2CC2)cc1	u	x	x	0%	5%	1%	u	27%
c1ccc(Cn2nnc3cnccc32)cc1	2%	2.2%	-2%	0%	x	0%	-8%	-13%
COc1cc([N+](=O)[O-])ccc1NC(=S)Nc1cc(C(=O)OC(C)C)cc(C(=O)OC(C)C)c1	-47%	-9.0%	-8%	-8%	-6%	3%	u	-3%
Cc1n[nH]c(=O)c2c(NC(=O)COC(=O)Cc3c(F)cccc3Cl)oc(C)c12	u	x	x	x	-5%	-6%	-16%	10%
CCc1cc(=O)n2c([nH]c3ccccc32)c1C#N	13%	3.8%	5%	u	14%	-23%	10%	8%
CSc1nc2ccccc2cc1/C=C(\C#N)c1ccc(Cl)c(Cl)c1	0%[46.1 µM]	-0.3%	25µM*	1%	-15%	-1%	0%	14%
COc1ccc(-c2nnc(NC(=O)CSc3ccccc3)s2)cc1OC	u	-3.0%	u	0%	-23%	12%	-1%	4%
Cc1ccc(CNC(=O)CCCn2c(=O)c3ccccc3n(CC(=O)NCc3ccco3)c2=O)cc1	0%	-1.6%	u	0%	-21%	-10%	-19%	-1%
CCOC(=O)C1CCN(Cc2cn[nH]c2-c2ccc(C)cc2)CC1	9%	-0.9%	3%	2%	11%	2%	19%	8%

# Given with each value named: entries from further up
COc1ccc(OC)c(C(=O)NC2CC(C)(C)Cc3c2cnn3-c2ccccc2)c1 (stereo not given)
- Marburg entry inh: x
- Cruzain Triton: x
- Cruzain noTriton: x
- NS1 function inh: -15%
- 2A StopGo: u
- SARS PLP yeast: -50%
- LASV entry inh: x
- RE007 growth inh: 17%
CCN(C(=O)COC(=O)C(Cc1ccccc1)N1C(=O)c2ccccc2C1=O)C1CCS(=O)(=O)C1 (stereo not given)
- Marburg entry inh: 6%&6%
- Cruzain Triton: -0.4%
- Cruzain noTriton: u
- NS1 function inh: -21%
- 2A StopGo: -28%
- SARS PLP yeast: 9%
- LASV entry inh: -4%
- RE007 growth inh: 9%

# Next section:
SMILES	Marburg entry inh	Cruzain Triton	Cruzain noTriton	NS1 function inh	2A StopGo	SARS PLP yeast	LASV entry inh	RE007 growth inh
Oc1ccc(-c2sc(Nc3ccccc3)n[n+]2-c2ccc(F)cc2)cc1	x	x	x	1%	-9%	-9%	x	-10%
COC(=O)c1ccc(CON2C(=O)c3ccccc3C2=O)cc1	1%	3.5%	-10%	6%	18%	10%	6%	9%
CC(=O)c1cccc(NC(=O)c2sc(Cl)nc2C)c1	x	x	x	-30%	-5%	1%	x	2%
COc1ccc(-n2cnc3cc(C(=O)NC4CCCCCC4)ccc32)cc1	x	-9.2%	8%	x	22%	x	-29%[46.1 µM]	x
CCn1c2ccccc2c2cc(/C=N/O)ccc21	-30%	x	x	x	-21%	-2%	6%	u
CC(=O)c1cccc(NC(=S)NCCc2ccc(F)cc2)c1	5%[46.1 µM]	x	x	4%	-3%	-2%	6%	8%
COc1cccc(NC(=O)C2C3C=CC(O3)C2C(=O)NCc2cccnc2)c1 (stereo not given)	u	0.4%	1%	1%	8%	-12%	5%	-11%
O=C(Nc1ccc(F)c(Cl)c1)C1CC(=O)n2c(nc3ccccc32)N1 (stereo not given)	7%[46.1 µM]	x	x	0%	-16%	0%	u	3%
COc1ccc(C(=O)CC(=O)c2ccccc2)cc1	-25%[46.1 µM]	x	x	x	39%[activator]	x	u	u
CC(=O)N/N=C(/C)c1ccc(NC(=O)c2csc(C)c2C)cc1	2%[46.1 µM]	x	x	-13%	22%	-9%	u	-18%
c1ccc2c(c1)OCc1cn[nH]c1-2	x	x	x	-3%	5%	-3%	x	-13%
Cc1ccccc1/C=C/C1=NCCN1	11µM*	5.2%	-8%	-7%	-28%	x	u	-11%[18.4 µM]
Cc1nn(C)c2ncc(C(=O)c3ccccc3O)cc12	5%[46.1 µM]	x	x	-7%	-12%	0%	-37%	-6%
CCc1ccc(NC(=O)C2CCCN(S(=O)(=O)c3cccc4nsnc34)C2)cc1 (stereo not given)	8%[46.1 µM]	-3.5%	-18%	x	u	x	-6%[46.1 µM]	x
Cc1cc(/C=N/NC(=O)CC2(C)OCCO2)c(C)n1-c1cc(Cl)cc(Cl)c1	-1%	-4.3%	u	-9%	-8%	15%	-28%	0%
CC(=O)c1ccc(NC(=O)CSc2ccc(-c3sc(C)nc3C)nn2)cc1	-21%[46.1 µM]	x	x	-5%	u	-1%	-22%[46.1 µM]	-20%
Fc1ccccc1CSc1nncn1NCc1cccs1	u	-2.5%	-4%	-6%[9.22 µM]	0%	0%	17%	5%
C[C@@H]1C=C(C(=O)N2CCN(C)CC2)O[C@H](OCc2ccc(CO)cc2)C1	x	x	x	6%	-18%	1%	x	1%
COc1ccccc1C(O)(c1ccccc1)c1ccccc1OC	u	x	x	x	-1%	x	-25%[46.1 µM]	-2%
Nc1ccc(C(=O)N(CCO)CCO)cc1	13%[46.1 µM]	x	x	-1%	-4%	1%	3%	29%
COc1ccc(C2(CNC(=O)c3cccc([N+](=O)[O-])c3)CCOCC2)cc1	3%	-1.7%	-1%	-15%	-17%	-8%	6%	4%
Cn1c(SCC(=O)Nc2ccc(Br)cc2F)nnc1-c1ccco1	-3%[46.1 µM]	x	x	-11%	9%	0%	1%[46.1 µM]	16%
COC(=O)C1[C@H]2C(=O)N(Cc3cccs3)C[C@]23C=C[C@H]1O3 (stereo not given in full)	14%	4.2%	-6%	-2%	-16%	0%	-4%	-2%
Cc1cc(-c2c(C)[nH]n(-c3ccccc3)c2=O)n[nH]1	u	x	x	-7%	12%	9%	u	2%
COC(=O)c1nc2ccccn2c1F	-16%[46.1 µM]	x	x	x	-4%	-1%	14%[46.1 µM]	-5%
Nn1c(Cc2ccccc2F)nnc1SCC(=O)Nc1cccc(S(=O)(=O)NC2=NCCCCC2)c1	-10%[46.1 µM]	x	x	x	-1%	0%	2%[46.1 µM]	-13%
COc1ccccc1CNC(=O)CCC(=O)N1C[C@H]2C[C@@H](C1)c1cccc(=O)n1C2	x	x	x	-6%	-6%	0%	x	6%
Cc1ccc(N2CC(C(=O)NCc3n[nH]c(=O)c4ccccc34)CC2=O)cc1 (stereo not given)	16%	x	x	x	4%	2%	-16%	-14%
CC(C)(C)NC(=O)C(c1ccccn1)N(C(=O)C1CSC(=O)C1)c1ccc(F)cc1 (stereo not given)	0%	1.8%	-2%	0%	11%	0%	11%	10%
CC1CCc2[nH]c3ccc(C(=O)N(C)CC(=O)Nc4ccccc4Br)cc3c2C1 (stereo not given)	u	x	x	x	u	-11%	u	-3%
Cc1ccc(Nc2ncnc(N)n2)cc1C	x	x	x	3%	35%[activator]	0%	x	-6%
CCOC(=O)C1CC=C(Cl)CC1C(=O)Nc1nccs1 (stereo not given)	-8%	-3.0%	-9%	-44%	-10%	-4%	22%	-4%
CSc1ncc(C(=O)O)n1-c1ccc(F)cc1	4%	3.2%	15%	0%	18%	12%	0%	5%
Cc1cccc(N2C(=O)CC(N(O)c3ccccc3)C2=O)c1 (stereo not given)	23%	1.7%	-8%	-1%	14%	1%	29%	-1%
Cc1nc(CSc2nsc(C)c2C#N)cs1	u	x	x	x	11%	0%	12%	0%
O=C(NC(Cc1ccccc1)C(=O)O)C1CCN(S(=O)(=O)c2ccccc2C(F)(F)F)CC1 (stereo not given)	x	x	x	-3%	-1%	1%	x	6%
COc1ccc(C2=NOC(C(=O)NC3CCCCC3)C2)cc1OC (stereo not given)	-6%	-2.0%	-12%	-9%	2%	2%	16%[14.3 µM]	-5%
O=C(CSc1nc2[nH]c(=O)cc(O)c2s1)Nc1nncs1	9%[46.1 µM]	x	x	x	-10%	x	-13%	9%
O=C(NCc1ccc(F)cc1)c1cccs1	x	x	x	21%	-21%	6%	x	1%
Cc1ccc(S(=O)(=O)N2CCCCC2)c(C)c1NS(C)(=O)=O	5%	x	x	3%	-5%	2%	9%	5%
Cc1nnsc1C(=O)N1CCN(c2ccc(F)cc2)CC1	x	x	x	5%	-12%	0%	x	-2%
CC(C)N1C(=O)N(c2ccc(Cl)cc2)C(C)(O)CC1(C)C (stereo not given)	x	x	x	-9%	0%	4%	x	24%
CC(=O)N1CN(C2CC(C)(C)NC(C)(C)C2)Cc2c1sc1c2CCCC1	u	-5.0%	2%	-9%	-19%	-12%	u	-4%
O=C(Nc1nc(-c2ccccc2)cs1)c1ccc(Br)o1	4%	-2.1%	u	-137%	15%	-36%	-4%	u
NS(=O)(=O)c1ccc(CNC(=S)NC(=O)c2ccco2)cc1	1%[46.1 µM]	x	x	x	8%	-2%	1%[46.1 µM]	-4%
CCCn1c(C)c(C(=O)OCC)c(O)c(-c2ccccc2)c1=O	17%[46.1 µM]	x	x	x	3%	x	1%	-1%
Cc1ccc(CN2CCN(/N=C\C(Br)=C\c3ccccc3)CC2)cc1	-15%[46.1 µM]	-5.9%	9%	-16%	u	-32%	-11%	-22%
C=CCn1c(O)c(C=Nc2c(C)n(C)n(-c3ccccc3)c2=O)c(=O)[nH]c1=O	x	x	x	-4%	-14%	-2%	x	-1%

# High-throughput results as filed in PubChem BioAssay.
